UBC13 inh: inhibitors of human UBC13 polyubiquitin chain formation | TR-FRET | P61088 | 0.47% of 330,000 active | inhibition, % at 20 µM; in the data active = inhibition above about 45%, passing the limit was not always enough; inconclusive = no clear call, values can overlap the other calls
697 NFkB inh: inhibitors of the PMA/ionomycin-induced NF-kB reporter in 697 B cells. 697 B-cell NF-kB luciferase reporter, 16 h. inhibition, % at 4 µM. 0.33% of 330,000 active; in the data active = inhibition above about 35%
HKDC1 inhibitor: blocks human hexokinase HKDC1 activity; Q2TB90; recombinant HKDC1, G6PDH/diaphorase resazurin coupled fluorescence; inhibition, % at 20 µM; 0.16% of 340,000 active; AID 493160;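 active = inhibition above about 35% when tested at 20 µM, limit read from the data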;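 also: plate controls were DMSO wells with enzyme for no effect and DMSO wells lacking enzyme for full effect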
Target sequence (Q2TB90 whole entry, looked up): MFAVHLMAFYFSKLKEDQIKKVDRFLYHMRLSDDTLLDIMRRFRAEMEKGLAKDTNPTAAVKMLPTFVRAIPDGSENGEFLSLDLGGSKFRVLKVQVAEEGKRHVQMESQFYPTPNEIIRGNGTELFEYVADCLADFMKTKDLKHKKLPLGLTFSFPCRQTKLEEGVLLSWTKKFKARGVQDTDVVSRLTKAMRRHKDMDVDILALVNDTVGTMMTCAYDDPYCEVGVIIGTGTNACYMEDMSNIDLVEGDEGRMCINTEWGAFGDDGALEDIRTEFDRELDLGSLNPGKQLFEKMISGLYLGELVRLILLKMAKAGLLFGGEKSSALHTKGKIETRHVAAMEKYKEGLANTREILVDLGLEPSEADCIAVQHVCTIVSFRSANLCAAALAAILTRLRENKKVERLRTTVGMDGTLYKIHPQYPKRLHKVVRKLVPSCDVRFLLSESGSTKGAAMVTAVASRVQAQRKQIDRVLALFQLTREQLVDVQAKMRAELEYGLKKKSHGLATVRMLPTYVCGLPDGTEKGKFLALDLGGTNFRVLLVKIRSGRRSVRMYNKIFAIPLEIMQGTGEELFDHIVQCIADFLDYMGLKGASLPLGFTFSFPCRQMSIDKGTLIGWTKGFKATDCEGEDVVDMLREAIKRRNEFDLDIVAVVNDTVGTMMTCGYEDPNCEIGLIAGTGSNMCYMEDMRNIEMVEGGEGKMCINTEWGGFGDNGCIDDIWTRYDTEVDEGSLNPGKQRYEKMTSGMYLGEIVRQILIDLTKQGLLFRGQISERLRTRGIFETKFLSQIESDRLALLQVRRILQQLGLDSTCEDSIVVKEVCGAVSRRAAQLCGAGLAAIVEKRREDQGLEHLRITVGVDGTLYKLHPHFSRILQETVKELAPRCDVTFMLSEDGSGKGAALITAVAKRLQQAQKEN
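Assay system: in-house recombinant HK5 (HKDC1) enzyme. Input: HKDC1 at 5 µg/mL. Medium: Tris pH 8.0 buffer with MgCl2, Tween-20, BSA, BME. Dosing: single 20 µM dose. Schedule: 90 min reaction incubation at room temperature, dark. Signal: resazurin-to-resorufin fluorescence via G6PDH and diaphorase coupling, 525/613 nm. Controls: DMSO-enzyme wells negative, buffer-substituted wells positive.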
Gli-Sufu antag: blocks Gli-Sufu signaling in a luciferase reporter; 0.74% of 340,000 active; Sufu-KO-LIGHT fibroblasts, Gli luciferase reporter luminescence; inhibition, % at 5 µM;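 active = inhibition above about 55%, limit read from the data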;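 also: 0% = DMSO-treated cells and 100% = wells with medium but no cells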
Jurkat NFkB inh: lowers PMA/ionomycin-induced NF-kB signal in Jurkat cells. PMA/ionomycin-induced NF-kB luciferase reporter, luminescence. inhibition, % at 4 µM. 0.53% of 330,000 active. AID 435003
SENP8 inh: inhibitors of human SENP8 protease; Q96LD8; purified SENP8, Z-RLRGG-aminoluciferin cleavage, luminescence; inhibition, % at 10 µM; 1.2% of 330,000 active; AID 2540
Target sequence (Q96LD8 whole entry, looked up): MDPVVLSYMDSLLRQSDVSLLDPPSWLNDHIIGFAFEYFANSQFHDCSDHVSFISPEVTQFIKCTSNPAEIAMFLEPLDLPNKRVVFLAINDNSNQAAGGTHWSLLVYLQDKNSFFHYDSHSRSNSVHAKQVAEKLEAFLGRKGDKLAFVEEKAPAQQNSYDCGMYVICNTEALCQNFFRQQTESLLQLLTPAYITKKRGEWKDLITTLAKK
SENP7 inh: inhibitors of human SENP7 protease | Q9BQF6 | inhibition, % at 5 µM | recombinant SENP7, Z-RLRGG-aminoluciferin luminescence, 40 min | 1.5% of 330,000 active;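 active = inhibition above about 50% at the single test dose, limit read from the data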;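 also: plate controls were DMSO with enzyme for no effect and no enzyme buffer wells for full effect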
* hit, by the source's call; ? = inconclusive; nt = no result given; & = joins results of further samples. Rule as the data show it, unless noted: active = inhibition above about 50%; inactive = the rest. This is a subset; count on the stated rates, not on these rows.

SMILES	UBC13 inh	697 NFkB inh	HKDC1 inhibitor	Gli-Sufu antag	Jurkat NFkB inh	SENP8 inh	SENP7 inh
CC1(C)CC(=O)C2=C(C1)OC(N)=C(C#N)C21CCN(Cc2ccccc2)CC1	-14	-8	0	9	8	4	11
CC(=O)c1cc2cc(O)ccc2o1	11	1	-3	-4	4	4	4
O=c1cc(C(F)(F)F)c2sc(N3CCCCC3)nc2[nH]1	9	-5	8	-1	-5	-2	3
CCC(c1nnnn1CCOC)N(Cc1ccc(C)cc1)Cc1cc2cc(OC)ccc2[nH]c1=O (stereo not given)	8	2	7	-5	-6	-6	-2
COC(=O)C1=CNC=C(C(=O)OC)C1c1ccc(C(=O)OC)cc1	-5	-32	-4	14	-3	-8	-8
COn1c(C)c(C(C)=O)c2c3nonc3ccc21	-36	-5	-11	-11	13	17	-1
O=C(c1cccn2c(=O)c3cc(Cl)ccc3nc12)N1CCN(Cc2ccc3c(c2)OCO3)CC1	6	5	-4	17	8	-3	-3
Nc1c(C(=O)OCC2CCCO2)c2nc3ccccc3nc2n1-c1ccc2c(c1)OCCO2 (stereo not given)	-27	8	5	-1	-13	0	4
CCc1c(-c2ccccc2)nc2nc(C)c(C)nn12	15	-7	-1	-1	3	-3	-8
Cc1ccc(S(=O)(=O)c2c(N)n(NC(=O)c3ccco3)c3nc4ccccc4nc23)cc1	15	34	-3	14	10	9	3
Cc1ccc2nc3c(cc(C(=O)NCC4CCCO4)c(=N)n3CCCOC(C)C)c(=O)n2c1 (stereo not given)	-12	-43	-8	-6	-25	1	4
CCCCN(C)CCn1c(=S)[nH]c2ccc(N3CCOCC3)cc2c1=O	-10	-38	4	10	-26	-11	-3
CCN1CCN(Cc2c(O)c(Cl)cc3c(C)cc(=O)oc23)CC1	10	13	14	6	-1	5	7
c1ccc2nc(N3CCCC3)c(N3CCCC3)nc2c1	6	0	5	1	9	-2	4
COc1cccc2cc(-c3nc(-c4cccs4)cs3)c(=O)oc12	24	-60	-4	-86	-82	-10	-4
CC1CCN(c2oc(-c3cccc4ccccc34)nc2C#N)CC1	22	-54	10	-52	-44	6	-2
O=C(CN1C(=O)c2cccc3cccc1c23)Nc1cccnc1	2	-14	3	-18	2	8	8
CSc1ccc(C2NC(=O)c3c(sc4c3CCN(C)C4)N2)cc1 (stereo not given)	5	-9	5	3	-8	-5	-3
COc1ccc2cc(CN(CCCN3CCOCC3)Cc3nnnn3C3CCCC3)c(=O)[nH]c2c1	13	14	-9	2	7	-4	2
CCN1C=C(C(=O)OC)C(c2cccc(C)c2)C(C(=O)OC)=C1	12	-6	0	13	-8	1	-13
CCCN1CC=C2C(C#N)=C(N)C(C#N)(C#N)C(c3cccc(OC)c3OC)C2C1 (stereo not given)	-8	18	0	-3	-11	-1	7
COCc1cc(C)nc(SCC(=O)Nc2cccc3cccnc23)c1C#N	-2	11	-1	12	22	1	1
COc1cc(Cn2c(N)c(C#N)c3nc4ccccc4nc32)cc(OC)c1	22	-16	8	-10	-10	23	8
Oc1cccc(/C=N/c2c(-c3ccco3)nc3ccccn23)c1	-3	-18	-1	-33	-4	-4	7
CN1C(C(=O)Nc2ccccn2)=C(O)c2sccc2S1(=O)=O	-14	-14	-1	-14	5	-9	-1

Reprinted from the listing, 11 compounds:
SMILES	UBC13 inh	697 NFkB inh	HKDC1 inhibitor	Gli-Sufu antag	Jurkat NFkB inh	SENP8 inh	SENP7 inh
COC(=O)C1=CNC=C(C(=O)OC)C1c1ccc(C(=O)OC)cc1	-5	-32	-4	14	-3	-8	-8
COn1c(C)c(C(C)=O)c2c3nonc3ccc21	-36	-5	-11	-11	13	17	-1
O=C(c1cccn2c(=O)c3cc(Cl)ccc3nc12)N1CCN(Cc2ccc3c(c2)OCO3)CC1	6	5	-4	17	8	-3	-3
Nc1c(C(=O)OCC2CCCO2)c2nc3ccccc3nc2n1-c1ccc2c(c1)OCCO2 (stereo not given)	-27	8	5	-1	-13	0	4
CCc1c(-c2ccccc2)nc2nc(C)c(C)nn12	15	-7	-1	-1	3	-3	-8
Cc1ccc(S(=O)(=O)c2c(N)n(NC(=O)c3ccco3)c3nc4ccccc4nc23)cc1	15	34	-3	14	10	9	3
Cc1ccc2nc3c(cc(C(=O)NCC4CCCO4)c(=N)n3CCCOC(C)C)c(=O)n2c1 (stereo not given)	-12	-43	-8	-6	-25	1	4
CCCCN(C)CCn1c(=S)[nH]c2ccc(N3CCOCC3)cc2c1=O	-10	-38	4	10	-26	-11	-3
CCN1CCN(Cc2c(O)c(Cl)cc3c(C)cc(=O)oc23)CC1	10	13	14	6	-1	5	7
c1ccc2nc(N3CCCC3)c(N3CCCC3)nc2c1	6	0	5	1	9	-2	4
COc1cccc2cc(-c3nc(-c4cccs4)cs3)c(=O)oc12	24	-60	-4	-86	-82	-10	-4

Further compounds.
SMILES	UBC13 inh	697 NFkB inh	HKDC1 inhibitor	Gli-Sufu antag	Jurkat NFkB inh	SENP8 inh	SENP7 inh
CCO/C=C1\C(=O)N(c2ccccc2)C(=O)c2ccccc21	4	-14	1	1	0	15	-7
N#Cc1c2c(c(NCc3ccco3)n3c1nc1ccccc13)CCC2	-16	-18	8	-13	19	-3	26
CC1=CC(C#N)(C#N)C(C#N)(C#N)C(c2ccccc2)N1 (stereo not given)	-2	7	nt	nt	14	0	1
O=c1c2ccccc2c(/C=N/n2cnnc2)c(O)n1-c1ccccc1F	3	-6	-8	-2	-14	16	-2
Cc1cc2c(cc1C)NC(c1c(C)n(C)n(-c3ccccc3)c1=O)C1=C(CC(C)(C)CC1=O)N2 (stereo not given)	-38	-2	17	0	-26	-3	0
COc1ccc2[nH]c(=O)c(CN(Cc3ccccc3)Cc3nnnn3CC3CCCO3)cc2c1 (stereo not given)	-8	-21	2	-7	8	-7	4
O=C(C1=C(O)C(=O)N(c2ncccn2)C1c1cccs1)c1ccco1 (stereo not given)	0	-1	-10	3	12	-5	3
CCN(CC)c1ccc2cc(NC(=O)CCC(=O)O)c(=O)oc2c1	-2	80*	-2	43	21	3	0
O=C(Nc1nc(-c2cc3ccccc3oc2=O)cs1)c1ccco1	14	-31	9	-16	-24	12	0
CCn1nc(C)c(/C=C2\CCCC3=C2OC(N)=C(C#N)C3c2c(C)nn(CC)c2C)c1C (stereo not given)	-19	-3	nt	nt	8	-5	4
CCNc1oc(-c2cccc3ccccc23)nc1C#N	20	-19	-5	3	-26	0	0
O=C(CN1C(=O)c2cccc3cccc1c23)Nc1ccccc1C(=O)NCc1ccco1	9	10	10	9	-4	-1	-5
CCOC(=O)C1=CN(C)C=C(C(=O)OCC)C1c1ccsc1	17	28	0	11	-5	1	-1
N=c1c(C(=O)NCc2ccc(F)cc2)cc2c(=O)n3ccccc3nc2n1CC1CCCO1 (stereo not given)	-10	-34	0	23	8	-5	-6
Cc1cccn2c(=O)c3cc(C(=O)NCc4ccco4)c(=N)n(CCc4ccccc4)c3nc12	6	-24	-4	19	-1	2	-5
CCc1c(C)c2ccc(O)c(CN(C)C)c2oc1=O	13	-1	6	5	5	7	2
Cc1cccn2c(=O)c3cc(C#N)c(=NC(=O)c4ccccc4)n(Cc4ccco4)c3nc12	11	3	24&13	-17&-16	6	11	4
CCCCCn1c(=NC(C)=O)c(C#N)cc2c(=O)n3ccccc3nc21	3	-2	12	0	12	-2	0
COc1ccc(C2NC3=C(CCCC3)C(C#N)(C#N)C2(C#N)C#N)cc1 (stereo not given)	6	3	nt	nt	-4	0	10
CCOC(=O)c1cnn2c(C(F)(F)F)cc(-c3ccccc3)nc12	9	5	-5	0	13	5	2
CNc1nnc(-c2cc3ccccc3oc2=O)s1	-5	-87	7	-120	-62	21	47
CC(C)Cn1c(N)c(C(=O)NCCN2CCOCC2)c2nc3ccccc3nc21	7	20	0	7	-11	12	4
CNC(=O)c1cc2cc(OC)ccc2oc1=N	-8	1	1	14	-3	-1	-4
Nc1c(S(=O)(=O)c2cccs2)c2nc3ccccc3nc2n1Cc1cccs1	10	11	1	-3	-19	2	8
CCOC(=O)c1cc(-c2ccc(/C=N\n3cnnc3)o2)ccc1Cl	7	-16	-4	30	6	5	8

Next section
SMILES	UBC13 inh	697 NFkB inh	HKDC1 inhibitor	Gli-Sufu antag	Jurkat NFkB inh	SENP8 inh	SENP7 inh
Cc1csc(NC(=O)c2cc3c(s2)-c2ccccc2OC3)n1	28	-101	-2	-67	-29	-7	8
O=C(NCCO)c1cc2ccccc2cc1O	4	12	-1	-1	14	2	3
Cc1occc1-c1nnc(SCC(=O)c2cc3ccccc3oc2=O)o1	-24	-11	-2	3	11	5	9
Cc1ccc2[nH]c(=O)c(CN(CCc3ccccc3)Cc3nnnn3CC3CCCO3)cc2c1 (stereo not given)	6	4	-3	3	6	-1	4
Nc1ccc2c(C(F)(F)F)cc(=O)oc2c1	18	12	5	-1	-3	-5	7
CS(=O)(=O)N1CCN(C(=O)c2csc3ccccc23)CC1	4	19	-13	-2	5	-6	-4
COC(=O)c1ccc(C(=O)OC)c(NS(=O)(=O)c2ccc(NC(C)=O)cc2)c1	11	18	-9	0	1	-9	-6
CCOC(=O)Cn1nnnc1C(CC)N(Cc1cccs1)Cc1cc2cc(C)ccc2[nH]c1=O (stereo not given)	4	12	-5	3	-6	-15	8
COc1ccc2c(c1)OCC1=C2CCC2(C)C(=O)CC=C12 (stereo not given)	-24	-5	nt	nt	-1	-9	-11
CCCn1c(=N)c(C(=O)NCC2CCCO2)cc2c(=O)n3cccc(C)c3nc21 (stereo not given)	-7	-5	-8	-6	-41	-7	-13
COc1cc(C(=O)N2CCCN(c3nc4cc(C)ccc4cc3C#N)CC2)cc(OC)c1OC	?	4	1	9	9	1	9
CCn1c(CSc2nccn2C)nc2cc(C(=O)O)ccc21	-3	-10	7	-6	-3	-5	-5
CCn1nc(NC(=O)c2ccccn2)c2cc3cc(C)ccc3nc21	2	-63	-3	-6	-32	-7	3
O=C(NCc1ccccn1)c1ccc2nc(-c3ccco3)c(-c3ccco3)nc2c1	-9	-3	nt	nt	-16	13	14
c1ccc(Cn2c(CSc3nnnn3-c3ccccc3)nc3ccccc32)cc1	7	5	-8	0	5	-1	0
CNc1ccc([N+](=O)[O-])cc1	-9	5	2	-19	2	1	5
COc1ccc(-n2c(NC(=O)c3ccco3)c(C#N)c3nc4ccccc4nc32)cc1	-25	-21	13	24	10	95*	87*
Cc1ccc(S(=O)(=O)c2c(N)n(Cc3ccco3)c3nc4ccccc4nc23)cc1	2	15	8	10	19	-1	0
O=c1c(O)c(-c2cccs2)oc2ccccc12	4	-17	8	12	-1	-12	-11
Cc1nc2nc(-c3ccccc3)cn2nc1C	14	-79	-3	-46	-88	41	11
Cc1[nH]c2ccccc2c1Cc1nnc(SCC(=O)NCc2ccco2)o1	4	-7	-2	-3	11	-4	3
CN1C=CC2=C(C#N)C(N)C(C#N)(C#N)[C@H](c3ccccc3)[C@H]2C1 (stereo not given in full)	-84	11	-4	3	9	4	-2
O=C(Nc1ccc2nc(-c3ccco3)c(-c3ccco3)nc2c1)N1CCCCCC1	27	-10	45*	7	10	3	1
COc1cc(C2NC(=O)NC(c3ccccc3)=C2C(C)=O)ccc1OCC(=O)O (stereo not given)	-2	-12	-3	6	2	4	2
Cc1cc(NCCCn2ccnc2)n2c(nc3ccccc32)c1C#N	5	23	4	22	2	9	10

Additional structures:
SMILES	UBC13 inh	697 NFkB inh	HKDC1 inhibitor	Gli-Sufu antag	Jurkat NFkB inh	SENP8 inh	SENP7 inh
COCCn1c(=N)c(C(=O)NCCc2ccccc2)cc2c(=O)n3cccc(C)c3nc21	3	-58	-11	-3	-14	5	-1
CCOC(=O)c1cc(-c2ccc3c(c2)OCCO3)nc2c1c(C)nn2CCC#N	?	3	1	-2	-6	-1	-1
CCCOc1ccccc1-c1nc(SCCC(=O)O)n[nH]1	-7	6	-7	6	1	-4	-11
CC(=O)Nc1ccc(S(=O)(=O)Nc2nc3ccccc3nc2Nc2ccc(C(=O)O)c(O)c2)cc1	-13	14	20	-7	-4	24	7
Cc1ccc2cc(C(c3nnnn3C(C)(C)C)N3CCCCCC3)c(=O)[nH]c2c1 (stereo not given)	-4	-2	-7	2	-8	-3	0
Cc1ccsc1C1C=C(c2cccc(Br)c2)Nc2ncnn21 (stereo not given)	9	17	-7	-2	2	5	9
O=c1c2cc(N3CCOCC3)ccc2[nH]c(=S)n1Cc1ccccn1	4	10	-3	0	-4	-6	2
Nc1ccc2c(c1)C(=O)N(CC1CCCO1)C2=O (stereo not given)	-8	-13	-4	-4	4	-4	-19
O=S(=O)(c1ccc2nc(-c3ccco3)c(-c3ccco3)nc2c1)N1CCOCC1	-35	14	20	14	9	9	22
